Screening data (PubChem)
Cruzain inh Det: cruzain (T. cruzi) inhibition with detergent. P25779. purified cruzain, Z-FR-AMC fluorescence, 0.01% Triton. Potency, µM, without a hit: max response, negative = inhibition, most hits filed as inhibitors. 200,000 tested, 0.43% active; active = well fitted curve in the direction sought with a large enough effect; inconclusive = small, poorly fitted or top-dose-only effect, or another doubt; inactive = no such curve, though single readings can be large; an effect the other way counts as inactive or inconclusive;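 also: plate controls were neutral wells for no effect and buffer without enzyme for full effect; nearly all actives have a fitted effect of over 40% in size; top concentration of the series not given in the record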
Target sequence (P25779 123-467 limits assumed): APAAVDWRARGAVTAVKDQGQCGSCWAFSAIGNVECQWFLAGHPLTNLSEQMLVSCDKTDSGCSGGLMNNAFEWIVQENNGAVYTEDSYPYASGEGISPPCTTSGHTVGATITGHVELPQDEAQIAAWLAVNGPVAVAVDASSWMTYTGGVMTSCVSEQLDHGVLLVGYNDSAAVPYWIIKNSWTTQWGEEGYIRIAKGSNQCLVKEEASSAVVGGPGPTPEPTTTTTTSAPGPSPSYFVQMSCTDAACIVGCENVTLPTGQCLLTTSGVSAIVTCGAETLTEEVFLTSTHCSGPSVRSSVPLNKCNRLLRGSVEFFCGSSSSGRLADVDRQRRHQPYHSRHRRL
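Steps: dispense cruzain (1.5 nM final) in acetate buffer pH 5.5 with DTT and 0.01% Triton X-100; pin-transfer compounds; incubate 15 min RT; add Z-FR-AMC (2 uM final); read fluorescence every 30 s, using the 60 s intensity change.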
SARS PLpro yeast: SARS-CoV PLP inhibition in yeast | S. cerevisiae expressing SARS-CoV PLpro, growth rescue; control for the full effect not named in the record | Potency, µM (titrated, usually from 32.9 µM), inactives show top-dose activity, positive = growth rescue | 330,000 tested, 0.19% active; also: 0% is about no effect; nearly all actives have a fitted effect of over 55% in size; growth read by luminescence after 48 h
RE007 growth inh: less growth of the S. pombe RE007 Vpr strain. S. pombe RE007 Vpr strain, BacTiter-Glo ATP luminescence, 24 h; control for the full effect not named in the record. 360,000 tested, 0.21% active. Potency, µM (top dose mostly 92.2 µM), for the others: top-dose activity change, negative = less growth; active = well fitted falling curve with a large enough effect; inconclusive = small, poorly fitted or top-dose-only effect; inactive = no such curve, though single readings can be large or run the other way;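 also: % is scaled to controls: 0 for no effect and ±100 for the full control effect; nearly all actives have a fitted effect of over 50% in size; the assay follows cell death caused by Vpr and the record does not say whether a fall means rescue or toxicity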
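Fission yeast strain RE007, carrying one chromosomally integrated HIV-1 vpr copy, was seeded at OD 0.01 in PMG+AL medium with 23 nL pinned compound. After 24 h at 30 °C and 99% humidity, viability was read by BacTiter-Glo luminescence.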
NS1 inh: influenza NS1 inhibition; S. cerevisiae slowed by influenza A NS1, growth recovery by OD600; Potency, µM (top dose mostly 46.1 µM), inactives show top-dose activity, positive = more growth; 270,000 tested, 0.4% active; AID 2326; also: actives are rising curves; nearly all actives have a fitted effect of over 50% in size
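Recovery from NS1-induced slow growth read by OD600 in budding yeast switched to galactose assay medium (pH 6.0, -URA) at 1:100 dilution. Compound 23 nl per well; the matching strain lacking NS1 serves as control.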
Lassa entry inh: Lassa virus entry inhibition; Potency, µM (highest dose often 37.9 µM), for inactives: at the top dose activity change, negative = inhibition, actives largely listed as inhibitors; Lassa virus pseudotype entry inhibition, cell reporter; control for the full effect not named in the record; 300,000 tested, 1.2% active; AID 540256; active means well fitted inhibition curve with a large enough effect; inconclusive means small, poorly fitted or top-dose-only effect, or effect the other way; inactive means flat fitted curve, though single readings scatter; tested in HEK293 cells; also: % is scaled to controls: 0 for no effect and ±100 for the full control effect; nearly all actives have a fitted effect of over 50% in size; luciferase read-out
Marburg entry inh: Marburg virus entry inhibition; AID 540276; Marburg virus pseudotyped entry inhibition, cell reporter; control for the full effect not named in the record; about a third of the inactives were read at about 46 µM; Potency, µM (highest dose often 37.8 µM), without a hit: at the top dose activity change, negative = inhibition, actives largely listed as inhibitors; 300,000 tested, 1.8% active; active = well fitted inhibition curve with a large enough effect; inconclusive = small, poorly fitted or top-dose-only effect, or effect the other way; inactive = flat fitted curve, though single readings scatter; tested in HEK293 cells; about a fifth of its hits are not listed in these tables; also: % is scaled to controls: 0 for no effect and ±100 for the full control effect; luciferase read-out
Cruzain inh noDet: cruzain (T. cruzi) inhibition without detergent. P25779. purified cruzain, Z-FR-AMC fluorescence, no detergent. Potency, µM, inactives show max response, negative = inhibition, actives largely listed as inhibitors. 200,000 tested, 2.3% active; active = well fitted curve in the direction sought with a large enough effect; inconclusive = small, poorly fitted or top-dose-only effect, or another doubt; inactive = no such curve, though single readings can be large; an effect the other way counts as inactive or inconclusive;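 also: plate controls were enzyme without inhibitor for no effect and buffer without enzyme for full effect; nearly all actives have a fitted effect of over 40% in size; top concentration of the series not given in the record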
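Detergent-free condition (0.00005% Triton X-100) in acetate buffer pH 5.5 with DTT. 1.5 nM enzyme and compound were pre-mixed 15 min, then 2 uM Z-FR-AMC substrate added; reaction progress from fluorescence change between first and third reads (60 s).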
2A StopGo: FMDV 2A StopGo reporter, luciferase signal; AID 1159524; human cells with a luciferase reporter of 2A StopGo recoding; control for the full effect not named in the record; 410,000 tested, 1.2% active; Potency, µM (titrated, usually from 57.9 µM), for the others: top-dose signal change, negative = less light; active = well fitted falling curve with a large enough effect; inconclusive = small, poorly fitted or top-dose-only effect; inactive = no such curve, though single readings can be large or run the other way; tested in HEK293T cells; also: % is scaled to controls: 0 for no effect and ±100 for the full control effect; nearly all actives have a fitted effect of over 45% in size; luciferase light after 4 h
* = called active by the depositor; ? = inconclusive; . = not tested or not shown; & = joins results of further samples; [ ] = remark or other dose. Unless noted, calls follow the shape of the dose curve; as a rule, active means well fitted rising curve with a large enough effect; inconclusive means small, poorly fitted or top-dose-only effect; inactive means no such curve, though single readings can be large or run the other way. Potency is read from the fitted curve at half-maximal effect.

SMILES	Cruzain inh Det	SARS PLpro yeast	RE007 growth inh	NS1 inh	Lassa entry inh	Marburg entry inh	Cruzain inh noDet	2A StopGo
COc1ccc(N2CC(NC(=O)c3ccc4ccccc4c3)CC2=O)cc1OC (stereo not given)	.	-3.8%	-6.8%	.	4.5%	1.3%[46.1 µM]	.	-14.3%
CC(C)(C)c1ccc(C(=O)Nc2ccc(C(=O)OCc3cc(=O)n4ccsc4n3)cc2)cc1	-1.4%	.	.	.	-29.4%[46.1 µM]	.	10.1%	14.1µM*
Cc1cccc(Oc2ncnc3onc(C)c23)c1	-1.3%	4.0%	-12.4%	1.7%	-13.4%	8.2%[46.1 µM]	-6.2%	3.7%
Cc1ccc(S(=O)(=O)NNC(=O)C2COc3ccccc3O2)cc1 (stereo not given)	-2.9%	-21.7%	10.6%	1.8%	-7.2%	?	3.2%	14.0%
Brc1ccc(-c2cn3c(n2)SCC3)cc1	.	-1.3%	-4.2%	-6.9%	?	?	.	-13.7%
COCCn1c(C)cc(C(=O)COC(=O)c2ccc(Br)o2)c1C	.	-0.9%	7.0%	-3.3%	?	?	.	4.5%
COc1ccccc1-c1c(C)nn2c(-c3ccccc3)cc(-c3ccccc3)nc12	-1.1%	.	.	.	-0.9%[46.1 µM]	?	7.1%	-22.0%
Cn1nc(C(F)(F)F)c(-c2ccccc2)c1N	.	0.0%	-12.4%	-5.0%	0.5%	23.6%[14.2 µM]	.	-21.3%
COc1ccccc1CCC(=O)OCC(=O)Nc1ccc(S(N)(=O)=O)cc1	.	-0.2%	-1.4%	.	?	0.8%[46.1 µM]	.	-2.3%
Cc1ccc(S(=O)(=O)Cc2ccc(C(=O)N3CCC(C)CC3)cc2)cc1	.	1.3%	18.0%	-6.0%	-16.5%	-1.8%	.	-14.0%
CC(CC(=O)OCC(=O)NC1CCS(=O)(=O)C1)c1ccccc1 (stereo not given)	.	1.0%	0.0%	.	-17.8%[46.1 µM]	-0.6%[46.1 µM]	.	5.4%
Cc1cccc(/N=C/c2c(O)[nH]c3ccccc23)n1	-6.2%	-4.1%	1.0%	-13.0%	-20.8%	11.1%	7.6%	.
CCOc1ccccc1NC(=O)Nc1cc(OC)ccc1OC	-8.1%	1.3%	-0.7%	-3.0%	-19.8%[14.3 µM]	-23.1%	?	1.9%
CC(C)CCNc1nc2c(-c3ccccc3)nnn2c2ccccc12	0.6%	.	.	.	5.1%[46.1 µM]	-6.2%[46.1 µM]	4.4%	0.0%
CCN1CCC2(CC1)N=C(c1ccc(F)cc1)C(=S)N2C(=O)c1ccc(C(C)(C)C)cc1	-22.6%	-4.7%	-1.5%	6.2%	-24.3%	?	-5.7%	-17.6%
COc1ccccc1NC(=O)C1C2C=CC(O2)C1C(=O)O (stereo not given)	0.4%	0.8%	.	4.9%	.	.	-10.4%	.
CCOc1ccc(C)cc1-n1nc2ccccc2n1	2.3%	1.3%	-26.1%	-15.2%	16.3%	10.7%	3.2%	45.8%[activator]
Fc1ccc(C2=CC(c3ccc(Br)o3)n3ncnc3N2)cc1 (stereo not given)	-5.5%	18.2%	?	-12.0%	?	4.2%	2.8%	-7.4%
Cc1ccc(-c2cc(C(=O)Nc3ccc(S(=O)(=O)N4CC(C)OC(C)C4)cc3)[nH]n2)c(O)c1 (stereo not given)	.	-2.4%	8.0%	3.0%	-16.4%	-9.5%	.	-26.8%
CCN(CC(=O)Nc1c(F)cccc1F)C(=O)CNC(=O)c1ccc2ccccc2c1	.	0.0%	3.5%	.	?	5.1%	.	6.5%
O=C(CS(=O)(=O)Cc1ccccc1)NCc1ccccc1Cl	.	0.5%	17.7%	15.3%	.	.	.	13.4%
NC(=O)NC(=O)C(Nc1ccc(N2CCCCC2)cc1)c1ccccc1 (stereo not given)	.	-1.4%	-6.9%	-6.3%	17.4%[46.1 µM]	?	.	-5.8%
COc1ccccc1NC(=O)c1cc(S(=O)(=O)N2CCc3ccccc32)ccc1F	0.6%	1.0%	-6.1%	11.9%	?	.	-2.6%	-13.2%&-15.5%
CNC(=O)OCc1cccc(COC(=O)NC)n1	6.5%	-12.2%	12.2%	1.4%	14.2%	4.6%	-1.4%	7.4%
O=C(Cn1ccc2cc(S(=O)(=O)N3CCCCCC3)ccc21)NCCc1ccccc1Cl	-4.5%	.	.	.	-9.1%[46.1 µM]	.	8.5%	33.3%[activator]
Cc1sc2nc(SCC(=O)NCc3cccs3)[nH]c(=O)c2c1C	-0.3%	4.1%	3.2%	-5.3%	-2.2%	-3.5%	6.5%	?
CCc1ccccc1NC(=O)c1c(NC(=O)c2ccccc2)sc2c1CCCC2	0.6%	.	.	.	-3.7%[46.1 µM]	.	-10.5%	-19.1%
CCOC(=O)Nc1ccc(S(=O)(=O)Nc2cc(C)on2)cc1	-0.1%	1.3%	0.7%	0.6%	9.1%	12.7%	-7.3%	2.2%
Cc1ccc(C(=O)c2oc3ccccc3c2NC(=O)c2cc(-c3ccccc3)on2)cc1	0.0%	.	.	.	-3.8%[46.1 µM]	7.0%[46.1 µM]	1.2%	0.3%
CC(C)Cc1nn2c(N)c(/C=C3\C=Nc4ccccc43)c(=O)nc2s1	.	-4.6%	6.3%	.	-19.4%	-14.8%[46.1 µM]	.	-1.0%
O=C(COC(=O)c1ccc(Cl)c(S(=O)(=O)N2CCCC2)c1)NC1CCCC1	1.3%	1.9%	-4.6%	-10.9%	2.6%	-1.2%	-8.6%	-4.2%
Cc1onc(-c2ccccc2)c1NC(=O)N(Cc1ccccc1)C(C)C	.	-1.2%	23.5%	0.8%	.	.	.	-3.1%
COc1cccc(N2CCN(c3nc(-c4ccccc4C)cc(=O)[nH]3)CC2)c1	.	-15.2%	-1.8%	-28.0%	.	.	.	-11.9%
COc1cccc(C2c3cc4c(cc3OC(N3CCOCC3)C2C)OCO4)c1O (stereo not given)	.	.	4.8%	.	?	-10.7%	.	-2.4%
Fc1cccc(CN2CCC(Cc3ccccc3)CC2)c1	.	-6.5%	-8.2%	9.4%	.	.	.	-2.4%
Cc1nnc(N2C(=O)C(O)=C(C(=O)c3ccco3)C2c2ccc(C(C)(C)C)cc2)s1 (stereo not given)	-9.0%	24.3%	1.1%	26.5%	-10.4%	13.3%&13.3%	?	-24.9%
COc1ccc(CCN2C(=O)CSC2=Nc2ccc(C(C)C)cc2)cc1OC	.	-1.0%	-2.9%	5.3%	1.41µM*	?	.	20µM*
CC(C)CCn1c(N2CCN(c3cccc(Cl)c3)CC2)nc2c1c(=O)[nH]c(=O)n2C	-8.8%	18.9%	-10.9%	-53.2%	?	18.7%[46.1 µM]	?	?
Oc1c(Br)cccc1/C=N/Nc1c(F)c(F)c(F)c(F)c1F	-2.6%	-14.0%	-12.3%	-3.4%	-19.1%	?	?	?
CCOC(=O)CNC(=O)C1c2ccccc2Oc2ccccc21	.	6.5%	1.0%	8.4%	28.4%	?	.	-6.6%
COc1ccccc1N1CCN(C2CCCN(Cc3c(F)cccc3F)C2)CC1 (stereo not given)	.	2.5%	-4.0%	-6.0%	.	.	.	-12.6%
CCC(=O)N1CCc2cc(Br)cc(S(=O)(=O)CCC(=O)N(CC)Cc3ccccc3)c21	-1.7%	.	.	.	-9.6%[46.1 µM]	16.3%[46.1 µM]	8.3%	-9.7%
COc1cc(C2CC(c3ccccc3)=NN2c2ccccc2)ccc1OCC(=O)O (stereo not given)	.	-5.1%	6.7%	11.4%	1.5%[46.1 µM]	0.2%[46.1 µM]	.	5.6%
COc1ccc(C(=O)N/C(=C\c2ccccc2)C(=O)NC(CCSC)C(=O)O)cc1 (stereo not given)	-0.2%	4.4%	15.8%	-1.4%	7.9%	20.2%	6.1%	12.2%
CC(=O)C(N=Nc1ccccc1)(Sc1nnc(-c2ccccc2)n1-c1ccccc1)C(=O)Nc1ccccc1 (stereo not given)	-0.9%	-18.1%	6.7%	?	-3.3%	?	25.1µM*	3.5%
OC(COc1ccc2cc(Br)ccc2c1)Cn1ccnc1 (stereo not given)	.	-2.0%	1.4%	-40.9%	.	.	.	?
O=C(Nc1c(Br)cc2c(c1Br)Cc1cc([N+](=O)[O-])ccc1-2)C(Cl)Cl	.	.	-4.3%	.	-2.9%[46.1 µM]	12.8%	.	-3.8%
O=C(O)Cc1ccc2c(c1)N(S(=O)(=O)c1cccs1)CC(C(=O)O)O2 (stereo not given)	.	0.4%	-23.9%	5.5%	37.3%[46.1 µM]	?	.	-17.3%
CCN1CCc2nc3sc(C(=O)c4ccc(F)cc4)c(N)c3cc2C1	-5.8%	.	.	.	-12.6%[46.1 µM]	.	-22.2%	-24.5%
O=C(N=C1SC2CS(=O)(=O)CC2N1c1cc(Cl)ccc1Cl)C1CCCO1 (stereo not given)	.	-0.4%	17.4%	-10.2%	.	.	.	-12.5%
COc1ccc(C(=O)N2CCCC(CCC(=O)NCc3ccc(F)c(F)c3)C2)cc1F (stereo not given)	.	0.1%	-6.8%	-5.1%	1.1%	.	.	12.7%
Cc1cc(NC(=O)CSCC(=O)N(C)Cc2c(F)cccc2Cl)no1	.	2.8%	8.4%	.	-1.4%	-16.5%	.	14.9%
O=C1/C(=C/c2cccs2)SC(=S)N1C1CCS(=O)(=O)C1 (stereo not given)	.	0.2%	2.6%	8.8%	-4.3%	?	.	-16.7%
CCN(CC)S(=O)(=O)c1cccc(NC(=O)COC(=O)C2=COCCO2)c1	.	-2.9%	-5.0%	.	-0.4%	3.6%	.	0.9%
Cc1ccc(-n2c(=O)c3ccc(C(=O)NCc4ccccc4Cl)cc3n(CC(=O)Nc3cccc(F)c3)c2=O)cc1	-2.4%	.	.	.	-29.6%[46.1 µM]	-7.0%[46.1 µM]	-6.3%	87.3%[activator]
NC(=O)CN1N=C(c2cc(Cl)sc2Cl)CSC1=O	-9.5%	9.0%	-3.5%	-0.3%[9.22 µM]	2.3%	?	5.6%	-16.5%
O=C(Cc1ccccc1)Nc1nc2ccccc2s1	-6.8%	-3.7%	19.3%	1.7%	-20.9%	?	-10.9%	26.8%

An unsorted share of the library; overall some 4.5% were active at least once.
